# Source: PubChem (several laboratories)
# Env fusion inh: inhibitors of HIV-1 Env-driven cell-cell fusion, primary screen, HeLa-JRFL effector, CEM21 target cells, luciferase. 1.1% of 360,000 active. AID 651610, 2012. inhibition, % at 12.3 µM;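 active = mean replicate inhibition score of at least 50 and every replicate individually at or above 50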;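 also: 0% = plate neutral controls and 100% = maraviroc near 300 nM; one replicate is shown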
# CSC inhib: cancer stem cell viability inhibitors, primary screen, luminescence; cancer stem cell-like cells viability; inhibition, % at 7.5 µM; 1.1% of 300,000 active; AID 2717, 2010;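 active = mean at 75% or more and at least half the replicates too; tested in HMLE shEcad cells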;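 also: 0% = median of negative and 100% = median of positive control wells; the first replicate is given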
# eIF4H inh: human eIF4H binding inhibitors, primary screen, translation initiation inhibitor project, biochemical, uHTS, fluorescence polarization. Eukaryotic translation initiation factor 4H (Homo sapiens), Q15056. eIF4H fluorescence polarization binding assay. inhibition, % at 35 µM. 0.94% of 290,000 active;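 active = 50% or more with normal probe brightness, or confirmed in later tests; about a fifth of its hits are not listed in these tables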;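 also: calls also rest on retests at 20 µM and on dose response follow-up; 0% = protein and probe with vehicle and 100% = probe without protein; strong numbers were not always called active; many hits fall short of the cut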
# MT1-MMP act inh: blockers of MT1-MMP proenzyme processing, primary screen, HT1080 RFP-PRO-GFP cells, GFP/RFP fluorescence. Matrix metalloproteinase-14 (Homo sapiens), P50281. GFP/RFP ratio fluorescence, overnight; percent of plate control window, DMSO zero. GFP/RFP ratio change, % at 20 µM. 0.061% of 360,000 active;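 active = GFP/RFP ratio change of at least 30% with cell ATP level not reduced by more than half and red fluorescence within 50% of control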; also: strong numbers were not always called active
#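 Compound: 20 µM single dose, 1% DMSO / System: HT1080 RFP-PRO-GFP cells / Controls: DMSO and RFP-L50D-GFP cell wells / Read-out basis: GFP/RFP fluorescence ratio / Schedule: overnight compound exposure at 37 °C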
# PABP polyA inh: PABP poly(A) RNA binding inhibitors, primary screen, biochemical, fluorescence polarization, uHTS; inhibition, % at 35 µM; Polyadenylate-binding protein 1 (Homo sapiens), P11940; AID 2014, 2009; 1% of 290,000 active;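 active = 50% or more with normal probe brightness, or confirmed in later tests; about a fifth of its hits are not listed in these tables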;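 also: calls also rest on retests at 20 µM and on dose response follow-up; controls were probe without protein and protein plus probe with vehicle; some compounds called inactive have numbers as strong as hits; many hits fall short of the cut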
# Target sequence (P11940 whole entry, looked up): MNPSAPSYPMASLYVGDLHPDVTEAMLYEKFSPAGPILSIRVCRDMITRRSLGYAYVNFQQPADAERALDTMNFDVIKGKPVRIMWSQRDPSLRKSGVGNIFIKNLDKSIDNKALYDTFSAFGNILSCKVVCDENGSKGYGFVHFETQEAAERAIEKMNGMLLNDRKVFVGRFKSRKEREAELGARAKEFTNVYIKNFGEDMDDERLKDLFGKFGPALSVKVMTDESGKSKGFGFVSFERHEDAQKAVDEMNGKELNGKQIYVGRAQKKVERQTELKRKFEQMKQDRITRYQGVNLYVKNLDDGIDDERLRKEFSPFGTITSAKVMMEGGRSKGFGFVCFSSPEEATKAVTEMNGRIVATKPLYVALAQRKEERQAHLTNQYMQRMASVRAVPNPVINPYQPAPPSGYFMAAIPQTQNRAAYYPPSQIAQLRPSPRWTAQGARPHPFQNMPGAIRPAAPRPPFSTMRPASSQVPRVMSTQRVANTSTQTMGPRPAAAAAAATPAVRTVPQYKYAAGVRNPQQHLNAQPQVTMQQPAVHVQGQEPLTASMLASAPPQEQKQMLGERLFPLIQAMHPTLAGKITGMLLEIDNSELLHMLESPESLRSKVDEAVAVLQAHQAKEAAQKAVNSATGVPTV
# UUG fidelity: modulators of yeast start codon fidelity, primary screen, whole organism, S. cerevisiae, single point, plate reader; activity score, % at 18.7 µM; 0.13% of 350,000 active; S. cerevisiae UUG-firefly luciferase reporter, luminescence/redox ratio;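 active = replicate mean at a twofold rise or more, about +100% in these data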;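 also: firefly luciferase made from a UUG start codon reports start codon fidelity; reporter light over untreated wells divided by growth signal over untreated wells; some hits fall short of that in this replicate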
# Rce1 inh: yeast Rce1p protease inhibitors, primary screen, biochemical, fluorescence, cell-free homogeneous; CAAX prenyl protease 2 (Saccharomyces cerevisiae (strain ATCC 204508 / S288c)), Q03530; yeast membranes, quenched prenylated peptide cleavage fluorescence; calls only; 0.27% of 290,000 active;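 active = fall in fluorescence gain of 50% or more versus controls, with final raw signal at or below 3038400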;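 also: plate controls were neutral control wells for no effect and wells lacking membranes for full effect; tested at 10 µM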
# eIF4H inh retest: also measured in eIF4H inh; calls as there; inhibition, %; compound at 20 µM; confirmation average;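 mean of two retest wells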
# PABP polyA inh retest: further read-out of PABP polyA inh, marked with its call; inhibition, %; compound at 20 µM; confirmation repeats;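 mean of two retest wells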
# MT1-MMP act inh RFP: further read-out of MT1-MMP act inh, marked with its call; RFP signal change, %; measured here: RFP expression control read;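 0 = vehicle wells; hits needed this value within 50% of zero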
# Active calls of the source: *; i = inactive; · = not tested or not shown; & = joins results of further samples. An excerpt (hit frequency here may not be typical).
SMILES,Env fusion inh,CSC inhib,eIF4H inh,MT1-MMP act inh,MT1-MMP act inh RFP,PABP polyA inh,UUG fidelity,Rce1 inh,others
Cc1cccnc1NC(=O)CSc1nnc(COc2ccc(C(C)C)cc2)n1C,24,6,2,2,1,5,·,i,
CS(=O)(=O)N(CC(=O)N1CCCC1)c1cccc(F)c1,-23,-2,2,-2,1,-6,-9,i,
COc1cccc(-c2ccc(SCC(=O)N3CCN(c4ccccc4)CC3)nn2)c1,11,-4,-5,1,-7,64,8,i,eIF4H inh retest=13;PABP polyA inh retest=22
Cc1cc(C(=O)C(=O)NC(C)C)c(C)n1-c1ccc([N+](=O)[O-])cc1,14,7,-2,-2,-4,5,2,i,
CCC(NC(=O)CCCc1ccccc1)c1ccccc1 (stereo not drawn),11,-3,-1,6,8,4,·,i,
S=c1[nH]nc(-c2ccco2)n1/N=C/C(Cl)=C/c1ccccc1,-59,83*,6,-1,-5,14,-3,i,
CCOC(=O)[C@@H]1[C@H]2COc3ccccc3[C@H]2N2C(=O)N(c3ccc(F)cc3)C(=O)[C@]12C,·,6,2,-2,1,3,4,i,
COc1cc(NC(=O)c2cccc3c2C(=O)N(Cc2cccnc2)C3)cc(OC)c1OC,2,23,-8,6,2,-9,-17,i,
Cc1ccc(/C(N)=N/OC(=O)c2cccs2)cc1,-65,-10,7,3,-1,8,-11,i,
CS(=O)(=O)N1CCN(c2ccc(NC(=O)c3cc4ccccc4o3)cc2)CC1,-6,-17,-21,0,3,-6,-8,i,
COc1ccc(C(O)c2nccn2Cc2ccccc2)cc1 (stereo not drawn),0,-9,-7,-1,-1,0,-21,i,
C=CCNC(=S)Nc1ccc(Br)cc1F,4,-7,-8,6,-6,-11,·,i,
COc1ccc(OCC(O)CNC(=O)c2ccc(OC)cc2)cc1 (stereo not drawn),-9,-8,-4,-2,0,8,·,i,
CC(C)=CCC/C(C)=C/CNC(=O)C[C@H]1C[C@H](C(=O)N2CCOCC2)[C@@]2(CCC3CCCC3)c3[nH]c4cc(-c5ccco5)ccc4c3CCN2C1=O,-5,·,·,-11,-5,·,-12,·,
CCc1ccc2c(c1)C(c1ccc([N+](=O)[O-])cc1)=NNC(c1ccc(F)cc1)=N2,-215,3,-11,1,-5,-11,4,i,
CCn1c(N)c(C(=O)NCc2cccnc2)sc1=S,·,-10,1,5,3,-2,-12,i,
CCCCn1c(N)c(N(CC(C)C)C(=O)CCCc2nc3ccccc3s2)c(=O)[nH]c1=O,21,7,·,0,-2,·,·,i,
Cc1ccc2[nH]nc(C(=O)N3CCCC(C(=O)c4ccc(Cl)cc4)C3)c2c1 (stereo not drawn),15,9,-3,4,1,4,·,i,
Cc1ccccc1OCCn1c(C)nc2ccccc21,9,18,-6,6,-26,11,-16,i,
CCCC(=O)n1nc(-c2ccco2)nc1SCc1ccccc1,·,-7,9,5,5,16,-15,i,
COc1ccccc1NC(=O)NCC(=O)Nc1c(C)cccc1C,5,·,-5,-1,1,-5,·,i,
COC(=O)c1ccc(N=Cc2c(C(F)(F)F)[nH][nH]c2=O)cc1,-77,-8,5,1,1,4,·,i,
Cc1noc(C)c1S(=O)(=O)N1CCN(c2ccc([N+](=O)[O-])cc2)CC1,-15,19,1,0,0,-3,-12,i,
COC(=O)C(=Nc1ccccc1)/C(C(=O)C(=O)N(C)c1ccccc1)=C(\O)c1ccccc1,-6,-14,-2,-5,0,0,6,i,
CCOC(=O)c1ccc(NC(=O)c2ccc3c(c2)OCO3)cc1,-43,-4,4,2,-3,2,-18,i,

# 5 neighbouring entries from above, for reference:
SMILES,Env fusion inh,CSC inhib,eIF4H inh,MT1-MMP act inh,MT1-MMP act inh RFP,PABP polyA inh,UUG fidelity,Rce1 inh,others
COc1ccccc1NC(=O)NCC(=O)Nc1c(C)cccc1C,5,·,-5,-1,1,-5,·,i,
COC(=O)c1ccc(N=Cc2c(C(F)(F)F)[nH][nH]c2=O)cc1,-77,-8,5,1,1,4,·,i,
Cc1noc(C)c1S(=O)(=O)N1CCN(c2ccc([N+](=O)[O-])cc2)CC1,-15,19,1,0,0,-3,-12,i,
COC(=O)C(=Nc1ccccc1)/C(C(=O)C(=O)N(C)c1ccccc1)=C(\O)c1ccccc1,-6,-14,-2,-5,0,0,6,i,
CCOC(=O)c1ccc(NC(=O)c2ccc3c(c2)OCO3)cc1,-43,-4,4,2,-3,2,-18,i,

# (next part)
SMILES,Env fusion inh,CSC inhib,eIF4H inh,MT1-MMP act inh,MT1-MMP act inh RFP,PABP polyA inh,UUG fidelity,Rce1 inh,others
CCc1ccc(-n2c(=O)c3c(C)c(C(=O)N(C)C)sc3n(CC(=O)NCC3CCCO3)c2=O)cc1 (stereo not drawn),-34,-7,-5,-3,2,-3,-15,i,
CC(=O)c1ccc(OCc2c(-c3ccccc3)nnn2CC(=O)NS(=O)(=O)c2ccccc2C)cc1,4,·,·,2,9,·,3,·,
O=C(CCNS(=O)(=O)c1cccc(C(F)(F)F)c1)NC1CC1,·,-17,·,3,2,·,-13,·,
Cc1ccc(CS(=O)(=O)c2ncn[nH]2)cc1,-10,-5,2,1,4,-12,-6,i,
Cc1ccc(C(=O)OCC(=O)NC(=O)NCc2ccccc2)cc1C,-23,-3,·,-1,0,·,-13,·,
CCCNC(=O)COC(=O)c1ccc(N2CCCC2)c([N+](=O)[O-])c1,9,-3,18,0,-3,0,·,·,
COc1ccc(C(C(=O)NC2CCCCC2)N(C(=O)c2sc(C)nc2C)c2ccccc2C)cc1 (stereo not drawn),·,-22,56,-8,-6,60,-14,i,eIF4H inh retest=1;PABP polyA inh retest=0
Cc1ccc(S(=O)(=O)N(CC(=O)N(C(C)C)C(C)C)C(=O)N2CCN(C)CC2)cc1,0,-18,-10,0,3,-5,3,i,
Cc1ccc(NC(=O)NCCN2CCN(c3ccccc3)CC2)cc1Cl,15,10,-7,3,0,-4,-8,i,
CCN1C(=O)/C(=C\c2cccs2)C(C(=O)OC)=C1C,·,-9,-1,-3,-2,4,-9,i,
Cc1ccc(NC(=S)N/C(=N/S(=O)(=O)c2ccccc2)c2ccccc2)cc1,-161,2,7,1&2,0&-7,-6,-17&-18,i,
Cc1nn(C)cc1C(=O)NNC(=S)Nc1ccccc1,-11,-1,3,-1,-2,5,-12,i,
COc1ccc(S(N)(=O)=O)cc1C(=O)NCCCN1CCN(c2ccccc2OC)CC1,3,-11,-4,5,2,5,-10,i,
COc1ccccc1C(=O)N1CCCC1(C#N)c1ccccc1 (stereo not drawn),·,2,10,-1,6,8,-19,i,
Cc1cc(C)nc(SCC(=O)Nc2ccc(S(=O)(=O)Nc3nccs3)cc2)n1,-54,-6,-12,1,0,0,19,i,
CC(=O)c1cccc(NC(=O)c2onc(C)c2Cl)c1,-44,·,-6,1,6,0,-9,i,
COc1ccc(NC(=O)C(=O)NCC2CCCN2S(=O)(=O)c2cccs2)cc1 (stereo not drawn),83*,54,·,-11,-10,·,-6,i,
Cc1ccc(C(=O)Nc2ccccc2N2CCCC2)cc1,14,-7,83*,2,-1,83*,-3,i,
COc1ccc(NC(=O)CC2SC(=Nc3ccccc3)NC2=O)cc1 (stereo not drawn),-2,-13,-1,4,8,-2,-13,i,
O=c1c2c3n(c(=O)nc2[nH]n1-c1ccccc1)CCCCC3,·,-4,-5,5,3,8,-30,i,
CCCc1ccc2oc(C(=O)N3CCN(CC(=O)NC(C)C)CC3)c(C)c2c1,0,16,-9,-2,-6,0,9,i,
COC(=O)c1c(-c2ccc(Br)cc2)csc1NC(=O)Cc1ccc(OC)c(OC)c1,·,-4,-5,-15,-28,-2,-19,i,
Nc1sc2c(c1C(=O)NC1CCS(=O)(=O)C1)CCC2 (stereo not drawn),·,-3,44,-3,5,69,14,i,eIF4H inh retest=31;PABP polyA inh retest=44
Cc1cc(-c2ccccc2)c2ccc(NC(=O)C(C)(C)C)nc2n1,3,-13,2,-6,-7,-6,-17,i,
N=C1/C(=C\c2ccc(SCc3ccccc3)o2)C(=O)N=C2SC(CC(=O)N3CCOCC3)=NN12,-5,-6,30,-17,3,34,·,i,
# Continued.
SMILES,Env fusion inh,CSC inhib,eIF4H inh,MT1-MMP act inh,MT1-MMP act inh RFP,PABP polyA inh,UUG fidelity,Rce1 inh,others
Clc1ccccc1CN1CCN(/N=C/C=C\c2ccco2)CC1,8,12,30,2,4,7,·,i,
CCOC(=O)c1cnc2c(cnn2C)c1Cl,3,-17,3,0,-2,-3,·,i,
COc1cccc(NC(=O)CSc2ccc3nnc(-c4ccncc4)n3n2)c1,0,-5,-1,1,0,5,-8,i,
COc1cccc(N(C(=O)c2ccco2)C(C(=O)NC2CCCC2)c2ccc(N(C)C)cc2)c1 (stereo not drawn),·,6,-2,-7,-3,12,-8,i,
COc1cccc(-c2nnc(NC(=O)c3ccc(S(=O)(=O)N(CC(C)C)CC(C)C)cc3)o2)c1,·,·,20,1,-1,1,-9,·,
Cc1oc(-c2ccccc2Cl)nc1CS(=O)(=O)CC(=O)NCCN1CCOCC1,7,-4,-5,3,10,-2,-10,i,
Cc1noc(C)c1CSCC(=O)N(C)CC(=O)Nc1ccccc1C(F)(F)F,1,·,·,-4,-1,·,-9,·,
CC(Sc1nnc(-c2ccccc2)c(-c2ccccc2)n1)C(=O)N1CCc2ccccc21 (stereo not drawn),-3,-14,-9,-5,0,3,·,i,
COc1cccc(-c2cc(C(=O)N/N=C/c3ccco3)c3ccccc3n2)c1,-12,-4,-1,0,-1,1,-12,·,
Cc1cc(OCc2ccc(F)cc2)nc(-c2ccccc2O)n1,22,4,2,0,-1,-8,-17,i,
CC(CC(=O)NC1CCSC1=O)c1ccccc1 (stereo not drawn),·,-9,-4,-5,-2,-1,-13,i,

# Random excerpt: 4 records from the list.
SMILES,Env fusion inh,CSC inhib,eIF4H inh,MT1-MMP act inh,MT1-MMP act inh RFP,PABP polyA inh,UUG fidelity,Rce1 inh,others
COc1cccc(-c2nnc(NC(=O)c3ccc(S(=O)(=O)N(CC(C)C)CC(C)C)cc3)o2)c1,·,·,20,1,-1,1,-9,·,
Cc1cc(OCc2ccc(F)cc2)nc(-c2ccccc2O)n1,22,4,2,0,-1,-8,-17,i,
Clc1ccccc1CN1CCN(/N=C/C=C\c2ccco2)CC1,8,12,30,2,4,7,·,i,
CC(CC(=O)NC1CCSC1=O)c1ccccc1 (stereo not drawn),·,-9,-4,-5,-2,-1,-13,i,
